CDC25B CDK2 inh = primary biochemical HTRF screen for blockers of M-phase inducer phosphatase 2 binding to CDK2/cyclin A; HTRF CDC25B-CDK2/CyclinA binding, anti-His/anti-Flag; stronger effect = higher value; 0.72% of 94,000 active; P30305+P24941; AID 1259370, 2018; z-score (concentration not given with the values);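 note: score is relative to mean and SD of negative controls; strong numbers were not always called active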
TAR Tat displ = TAR RNA-Tat peptide displacers, HIV-1, primary screen, biochemical, FRET, FAM/TAMRA-labeled Tat; HIV-1 TAR RNA, Tat peptide displacement FRET; stronger effect = higher value; z-score (test concentration not listed); 0.6% of 100,000 active; AID 1259389, 2018;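 note: score is relative to mean and SD of negative controls; some compounds called inactive have numbers as strong as hits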
* marks the source's active call; other numbers are inactive results; x = not tested or not shown.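 Rule for the calls: active = z-score from 3 up in half or more of its runs; inactive = the rest.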

Every second line gives: CDC25B CDK2 inh | TAR Tat displ
- CCCNc1nc(SCc2ccc(Cl)cc2)nnc1C
→ 0.33 | 0.3
- COc1ccc(C(=O)c2sc3nc(C)cc(C(F)(F)F)c3c2N)cc1OC
→ -1.2 | -6.7
- COC(=O)c1c(NC(=O)Cc2coc3cc(C)ccc23)sc2c1CCC2
→ -3.2 | 0.55
- CCN(CC)C(=O)C1Sc2nnc(C)n2NC1c1ccc(C)cc1 (centres undefined)
→ -2.1 | -0.92
- COc1ccc(-c2oc3ncn4nc(-c5ccncc5)nc4c3c2-c2ccc(OC)cc2)cc1
→ -2.2 | 4.3
- CSc1cccc(NC(=O)Cn2nc3c(cc2=O)CCCC3)c1
→ x | 0.96
- CC(=O)/C=C\c1cc[n+](C)cc1
→ -0.35 | x
- CC(C)N(C(=O)CSc1cn(CC(=O)N2CCCC2)c2ccccc12)C(C)C
→ x | 0.3
- COc1ccc(NC(=O)C2=Cc3ccccc3OC=C2)c(OC)c1
→ -0.31 | 0.06
- COC(=O)CSc1cc(=O)n(C)c(=O)n1C
→ -0.65 | -1.6
- O=C(CSc1ccc(Cl)cc1)Nc1nc(-c2ccccn2)cs1
→ x | 1.8
- O=C(CSc1nccn1Cc1ccc(F)cc1)NCc1ccc2c(c1)OCO2
→ x | 0.71
- COc1ccc(C2CC(=O)C3=C(C2)Nc2nc4ccccc4n2C3c2ccccc2)cc1OC (centres undefined)
→ -2.3 | -0.75
- CN(C)c1ccc(CN2CCc3nc(N4CCN(c5ccccc5)CC4)ncc3C2)cc1
→ x | -1.8
- COC(=O)C(C)Sc1nc2sc3c(c2c(=O)n1-c1ccccc1)CC(C)(C)OC3 (centres undefined)
→ -0.51 | x
- CC1CCN(C(=O)CN(C)S(=O)(=O)c2ccc3c(c2)NC(=O)CS3)CC1
→ x | 1.4
- CSc1sc(-c2nc(-c3ccc(Cl)cc3)cs2)c(C)c1C(C)=O
→ -0.24 | x
- COc1ccccc1NS(=O)(=O)c1ccc2c(c1)oc(=O)n2C
→ -0.79 | 2.9
- Cn1c(=O)c2c(c3ccccc31)OC(=O)CC2c1ccccc1Cl (centres undefined)
→ -0.03 | 1.6
- CCC(=O)N1CCc2cc(Br)cc(S(=O)(=O)NCCN(CC)CC)c21
→ 0.82 | x
- O=c1c(N2CCN(c3ccccc3)CC2)csc2ccc(Br)cc12
→ x | -2
- O=c1[nH]c(/C=C\c2ccco2)c([N+](=O)[O-])c(=O)[nH]1
→ -0.15 | 1.6
- COc1ccc(S(=O)(=O)c2ccc(C(=O)O)cn2)cc1
→ 0.43 | 1.4
- Cc1ccc(-n2nnc(-c3nc(-c4ccc(Cl)cc4)no3)c2N)cc1
→ x | -0.27
- CN1CCN(C(=O)c2c(NC(=O)c3cccs3)sc3c2CCC(C(C)(C)C)C3)CC1 (centres undefined)
→ -1.5 | x
- COc1cc(OC)c2nc(C)c3c(c2c1)CN(C(=O)Nc1cccc(C(F)(F)F)c1)C3
→ 15* | x
- CC1(C)Cc2nc3[nH]c(=O)n(-c4ccccc4)c(=O)c3cc2CO1
→ -1.8 | -0.1
- Cc1ccc(C2CC(c3cccc(F)c3)n3nnnc3N2)cc1 (centres undefined)
→ x | 2.9
- CC(CC(=O)N(Cc1ccco1)C1CCCCC1)S(=O)(=O)c1ccc2c(c1)CCN2C(=O)C1CC1 (centres undefined)
→ x | 1.3
- COc1ccc(-c2cn3cccnc3n2)cc1NC(=O)C1CCCC1
→ -1.2 | x

Structures listed so far with a CF3 group (2):
Every second line gives: CDC25B CDK2 inh | TAR Tat displ
- COc1ccc(C(=O)c2sc3nc(C)cc(C(F)(F)F)c3c2N)cc1OC
→ -1.2 | -6.7
- COc1cc(OC)c2nc(C)c3c(c2c1)CN(C(=O)Nc1cccc(C(F)(F)F)c1)C3
→ 15* | x

Following part
Every second line gives: CDC25B CDK2 inh | TAR Tat displ
- CCOc1ccc(Nc2ncnc3c2nc2n3CCCC2)cc1
→ x | 0.61
- O=C(O)c1c[nH]c2ccc(S(=O)(=O)N3CCC(O)CC3)cc2c1=O
→ x | 0.26
- OC(COc1cccc2cccnc12)Cn1c2ccccc2c2ccccc21 (centres undefined)
→ -0.9 | -1.6
- O=c1c2cccnc2n(Cc2ccccc2F)c(=O)n1CCc1c[nH]c2ccccc12
→ -0.49 | -0.51
- O=c1[nH]c(-n2cccc2)c(-c2c(-c3ccccc3)[nH]c3[nH]c(=O)[nH]c(=O)c23)c(=O)[nH]1
→ -2.4 | -0.37
- COc1ccc(CC2CCc3ncc(C)cc3C2)cc1 (centres undefined)
→ -2.9 | x
- Cc1ccc(-c2nnc(C3CCN(S(=O)(=O)c4c(C)cc(C)cc4C)CC3)o2)cc1
→ 0.05 | 0.8
- COC(=O)c1sccc1NC(=O)C1CCN(c2ncnc3c2nc2n3CCCCC2)CC1
→ x | 0.12
- CC(=O)Nc1ccc(NC2=C(Cl)C(=O)c3c(Cl)c(Cl)c(Cl)c(Cl)c32)cc1
→ -1.9 | x
- CCn1c(C(=O)N2CCC(C(=O)NCc3ccc(F)cc3)CC2)cc2sccc21
→ -2.2 | x
- COc1ccc(NC(=O)N2CCN(S(=O)(=O)c3ccc4c(ccn4C)c3)CC2)cc1OC
→ x | 1.5
- COc1ccc(OC)c(CN2CCN(Cc3ccco3)CC2)c1
→ 0.9 | 0.57
- COc1ccc(-c2nnc3sc(CN4CCc5ccccc54)cn23)cc1
→ x | 1.5
- COC(=O)c1cn(CCOc2ccc(F)cc2)c2ccccc12
→ -0.99 | 1
- CCOC(=O)c1cnc2nc[nH]n2c1=O
→ -1.3 | x
- CC(C)(C)c1csc(NC(=O)CS(=O)(=O)c2ccccc2)n1
→ x | 0.22
- CCOC(=O)Cc1csc(NC(=O)Nc2ccc(Cl)c(Cl)c2)n1
→ -1.1 | x
- COc1ccc(-c2cc(C(=O)O)c3c(-c4ccc(Cl)cc4)[nH]nc3n2)c(OC)c1
→ x | 2.6
- CC(C)N(C(=O)Cn1c(CCCO)nc2ccccc21)c1ccccc1
→ -1.2 | -0.21
- CC(=O)N1N=C(c2ccco2)CC1c1cc2cc(C)ccc2[nH]c1=O (centres undefined)
→ -2.4 | x
- O=C(NCC1CCCO1)c1cccc(N2C(=O)c3ccc([N+](=O)[O-])cc3C2=O)c1 (centres undefined)
→ 3.5* | x
- Cc1cc(C)cc(NC(=O)N2CCCN(c3nc4cc(F)ccc4n4cccc34)CC2)c1
→ x | 1.4
- O=C(CSc1nnc(-c2ccco2)o1)N1CCOCC1
→ 0.12 | 1.1
- O=C(Nc1cccc(O)c1)c1cccc(N2C(=O)c3cccc([N+](=O)[O-])c3C2=O)c1
→ 5.1* | x
- Cc1nn(CC(=O)N2CCOCC2)c(=O)c2c(-n3cccc3)n(-c3ccc(Cl)cc3)nc12
→ x | 0.14
- CC(C)(C)C(=O)Nc1c(C(=O)N2CCOCC2)oc2ccccc12
→ x | -0.52
- O=S1(=O)C[C@H](NCc2ccc(F)cc2)[C@@H](S(=O)(=O)c2ccc(F)cc2)C1
→ -0.95 | 0.36
- COc1cc(C(=O)NC(C)c2ccccc2)cc(OC)c1OC (centres undefined)
→ -1.6 | x
- O=C(Nn1cnnc1)c1ccc([N+](=O)[O-])cc1
→ -2.3 | x
- O=c1c(/C=N/Nc2nc3ccccc3s2)c(C(F)(F)F)[nH]n1-c1nc2ccccc2s1
→ 0.68 | x
- O=C(CC1NCCCNC1=O)Nc1cc(Cl)ccc1Cl (centres undefined)
→ -0.14 | x
- CCOC(=O)c1nc(Cl)c2c(C)c(C)n(-c3cccc(Cl)c3)c2n1
→ 0.45 | 0.29
- Cc1cccc(-c2noc(-c3ccc[nH]c3=O)n2)c1
→ -2 | 0.15
- Cc1cccc(N2C(=O)CSC23C(=O)Nc2ccc(Br)cc23)c1 (centres undefined)
→ -1.6 | x
- O=C1C(=O)N(c2ccccc2)C(=S)/C1=C(\O)c1ccc(Cl)cc1
→ -0.63 | x
- CC1CCN(S(=O)(=O)N2CCCC(C(=O)NCCCN3CCC(N4CCCCC4)CC3)C2)CC1 (centres undefined)
→ x | 0.71
- O=C1c2cccnc2C(=O)N1c1ccc(F)cc1
→ -1.2 | -0.95
- Cc1cccn2c(=O)c(C(=O)NC(C)C)cnc12
→ -0.2 | 0.16
- COc1cccc(OCC(O)CN2CC(C)OC(C)C2)c1 (centres undefined)
→ -0.43 | -0.69
- O=C(Nc1nc2ccsc2c(=O)s1)C1CCC1
→ 2.5 | x
- CC(=O)N(C)Cc1nc2ccccc2n1CC(=O)N(c1ccccc1)C(C)C
→ -0.38 | 0.84
- Cc1nc2c(=O)oc3ccccc3c2n1-c1ccccc1
→ -0.44 | x
- CCOC(=O)c1c(C)oc2ncnc(NCCN(CC)CC)c12
→ x | -0.01
- CCCSc1nnc(NC(=O)c2cc(-c3cccs3)on2)s1
→ -1.6 | 1.7
- Clc1ccc(-c2noc(CCc3nc4ccccc4[nH]3)n2)cc1
→ -1 | 1.3
- Cc1ccc2c(c1)NC(c1cc3c(CO)cnc(C)c3oc1=O)=NS2(=O)=O
→ -0.47 | -0.66
- CCOC(=O)C1CCN(S(=O)(=O)c2ccc(-c3cc(C)[nH]n3)s2)CC1
→ x | 0.65
- CC1Cc2ccccc2N1C(=O)c1cc(S(=O)(=O)N2CCc3ccccc32)cn1C (centres undefined)
→ -1.9 | 1.6
- COc1ccc(OC)c(CN2CCc3nc(N4CCC(C)CC4)[nH]c(=O)c3C2)c1
→ 0.41 | 1.6
- O=C(c1ccc2c(=O)n3c(nc2c1)CCCCC3)N1CCC2(CC1)OCCO2
→ -1.9 | x
- Fc1ccccc1-c1noc(NCc2cccc(Cl)c2)n1
→ x | 1.3
- Cc1cc(C)n(CC(N)=O)c(=O)c1C#N
→ x | 0.83
- Clc1ccccc1CSc1nncn2c1cc1occc12
→ x | 1
- CC1(C)CC(=O)N(CC(=O)NC2CCCC2)c2ccccc2S1(=O)=O
→ -1.6 | x
- COC(=O)c1sc2ccccc2c1S(=O)(=O)N1CCN(c2cccc(Cl)c2)CC1
→ x | -0.97
- COc1ccc(NC(=O)CSc2nnc(C)n3c2cc2occc23)cc1OC
→ x | 0.71
- Cc1ccc(N2C(=O)c3cccnc3C2Nc2ccc(Br)c(C)c2)cc1 (centres undefined)
→ -3 | 1.2
- CCO/C=C(\C#N)S(=O)(=O)Cc1ccco1
→ -0.74 | x
- COC(=O)c1cc([N+](=O)[O-])nn1Cc1ccccc1
→ -2.9 | 2
- COc1ccc(S(=O)(=O)N2CCSC2c2cc(OC)ccc2OC)cc1 (centres undefined)
→ -0.67 | 0.8

(next part)
Every second line gives: CDC25B CDK2 inh | TAR Tat displ
- COc1ccc(C2CC(=O)C3=C(C2)NC(=O)CC3c2ccc(F)cc2)cc1 (centres undefined)
→ 0.26 | 1.4
- CN(C)c1ccc(-n2[nH]nnc2=S)cc1
→ -0.95 | x
- CC(C)c1ccc(S(=O)(=O)c2cc3cc(Br)ccc3oc2=O)cc1
→ -2.3 | x
- CCCNC(=O)c1c(O)c2c([nH]c1=O)CCCC2
→ x | 2.6
- COc1cc2c(cc1OC)[C@@H]1C(=O)c3ccc4c(c3O[C@@H]1CO2)C=CC(C)(C)O4
→ x | 1.6
- O=C(Cn1c(=O)c2cccn2c2ccc(F)cc21)NCCc1ccco1
→ x | 2
- COC(=O)c1cc2ccsc2n1Cc1nc(-c2ccc(OC)c(OC)c2)oc1C
→ 0.48 | 1.1
- O=C1C2=C(c3ccccc3)c3cc(Cl)ccc3C2Sc2ccccc21 (centres undefined)
→ -3.1 | x
- Cc1cccc(C)c1OCc1cc(=O)n2c(-c3ccccc3)csc2n1
→ 0.57 | 0.08
- Cc1cc2oc(C(=O)N(Cc3ccco3)c3ccccn3)c(C)c2cc1Cl
→ -3.1 | 2.9
- CCc1cc2c(cc3c(=O)n(CC(=O)NC4CCCCC4)ncn32)s1
→ -1.5 | x
- CCCCOc1cc2oc(=O)cc(C)c2cc1Cl
→ -0.74 | x
- CCN(Cc1ccccc1)Cc1c(C)[nH]c2ccc(Br)cc2c1=O
→ -0.01 | x
- Cn1nc(-c2ccc(S(=O)(=O)Nc3ccccc3N3CCOCC3)s2)cc1C(F)(F)F
→ -0.63 | x
- O=C(O)CCC(=O)N1N=C(c2ccc(Cl)cc2)CC1c1cccs1 (centres undefined)
→ -0.88 | -4.7

Compound profiles (already shown). Order of values: CDC25B CDK2 inh | TAR Tat displ
O=c1c(/C=N/Nc2nc3ccccc3s2)c(C(F)(F)F)[nH]n1-c1nc2ccccc2s1 is listed as 0.68 | x
O=S1(=O)C[C@H](NCc2ccc(F)cc2)[C@@H](S(=O)(=O)c2ccc(F)cc2)C1 is listed as -0.95 | 0.36
CC(=O)N(C)Cc1nc2ccccc2n1CC(=O)N(c1ccccc1)C(C)C is listed as -0.38 | 0.84

(list continues)
Every second line gives: CDC25B CDK2 inh | TAR Tat displ
- CN1C(=O)Cc2cc(S(=O)(=O)N(C)CCc3noc(-c4ccccc4)n3)ccc21
→ x | 0.81
- COC(=O)c1cc(S(=O)(=O)NCCC2=CCCCC2)cn1C
→ -0.95 | -1.3
- O=C(C1CCN(c2nnc(N3CCCC3=O)s2)CC1)N1CCC(N2CCCCC2)CC1
→ x | 0.87
- COc1ccc(-n2cnc3ccccc3c2=O)cc1
→ -1.1 | 1.9
- CCOC(=O)c1cn(C)c(C(=O)OCC)c1O
→ 1.8 | 0.22
- Cc1cc(-c2ccccc2)cc(-c2ccccc2)[o+]1 (tested in a mixture with another compound)
→ -2.1 | x
- CCCN1C(=O)c2cc3sccc3n2CC1(C)C(=O)NC1CCCCC1 (centres undefined)
→ -1.4 | 1.3
- O=C(COCc1cc(-c2ccc3c(c2)OCO3)on1)NC1CCCCC1
→ x | -0.58
- CCCC1N=C2c3ccccc3N=C(SCC(=O)Nc3ccccc3Cl)N2C1=O (centres undefined)
→ x | 1.1
- Cc1ccccc1NC(=O)CSc1nc(-c2ccc3c(c2)OCO3)nc2cc(=O)[nH]n12
→ x | 1.7
